# Assay outcomes deposited in PubChem BioAssay by Broad Institute.
# Tgondii IFNg: inhibitors of Toxoplasma gondii growth with IFN-gamma | Toxoplasma gondii growth in IFN-gamma-treated host cells; active compounds read low; reference of the scale not given here | activity change, negative = inhibition, %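 (about 20 µM by stock and volumes)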 | 3.8% of 69,000 active | AID 1259416;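 active means below -70%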;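 further: host cells are HeLa cells infected with Toxoplasma gondii; parasite growth read as luciferase light; one replicate is shown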
# The depositor's hits bear a star; i = inactive; & = joins results of further samples. This is a subset, so the mix of outcomes need not match the whole.
structure | Tgondii IFNg
O=C(Cc1ccccc1)NCCc1nc(N2CCOCC2)ncc1C(=O)N1CCCC1 | 9
CCOC(=O)c1[nH]c(C)c(C(=O)OCC)c1C | 146
O=C1c2nccnc2C(=O)N1C(c1ccccc1)c1ccccc1 | 51
COCC1(C(=O)NC23CC4CC(C2)CC(n2nnc(C)n2)(C4)C3)CCC1 | 14
Cc1cccc(N2CC3(CCN(C(=O)c4cnc5ccccc5c4)C3)CC2=O)c1 (stereo unspecified) | -63
CC(=O)Nc1ccc2c(c1)C1(CCOCC1)C(=O)N2c1ccsc1 | 15
Cc1c(-c2csc(-c3ccc(Cl)cc3)n2)sc2ccccc12 | 35
CC(=O)c1[nH]c(C)c(C(=O)N2CCOC(c3ccc(F)cc3)C2)c1C (stereo unspecified) | 6
O=C(C1CC2(CO1)CN(Cc1ccc(F)cc1F)c1ccccc12)N1CCCC1 (stereo unspecified) | -17
COc1ccc(CNC(=O)CCC2N=C3c4ccccc4N=C(SCc4ccc(Cl)cc4)N3C2=O)cc1 (stereo unspecified) | -6
O=C(Cn1c(SCC(=O)N2CCc3ccccc3C2)nc2ccccc21)NC1CCCC1 | 3
COC(=O)/C=C/c1cc(O)ccc1O | -32
CC(=O)N1C2CCN(Cc3cccs3)CC2C[C@H]1CN(C)C (stereo partly specified) | 2
COc1cccc(-c2cccc(C3CCCN(C(=O)c4scnc4C)C3)n2)c1 (stereo unspecified) | -57
CCCN(Cc1ccc(OC)cc1)C(=O)c1cnc(N(C)C)nc1C | 7
Cn1c(C#N)ccc1-c1ccc2c(c1)C(C)(C)OC(=S)N2 | -83*
N#C[C@H]1[C@@H](c2ccccc2-c2cccc(F)c2)[C@H](CO)N1C(=O)c1cccnc1 | 34
CC(=O)OCC(=O)[C@@]1(O)[C@H](OC(C)=O)CC2C3CCC4=CC(=O)C=C[C@]4(C)[C@@]3(F)[C@@H](O)C[C@@]21C (stereo partly specified) | 10
CC(C)C1CN(C(=O)CCn2cnnc2)CCC(=O)N1CC1CC1 (stereo unspecified) | 10
COc1ccccc1C(=O)Nc1ccc2c(c1)C(=O)N(C)C[C@H](OC)[C@H](C)CN(C(C)=O)[C@@H](C)CO2 | 23

# Next section
structure | Tgondii IFNg
O=C(CCC1CCCN(C(=O)Cc2ccccc2F)C1)N1CCN(c2ccccn2)CC1 (stereo unspecified) | 0
O=C(Nc1ccc(-c2nc(-c3ccccc3)co2)cc1)Nc1ccc2c(c1)OCO2 | 41
COc1ccc(-c2nc(C)c(CCNC(=O)C(=O)Nc3cccc(C)c3)s2)cc1OC | 67
Cc1oc(-c2ccc(Cl)cc2)nc1Cn1c(=O)c2cccnc2n(-c2ccccc2)c1=O | 12
Cc1ccccc1-c1ncc(CN(C)C(C)c2ccon2)s1 (stereo unspecified) | 5
CCOC(=O)c1cnc(SCC(=O)Nc2ccc(C(C)=O)cc2)nc1N | 0
C=CCn1ncc(CN(C)Cc2nc3ccccc3[nH]2)c1C | 35
Fc1cccc(CN2CCN(Cc3ccc(-c4cccnc4)cc3)CC2)c1 | -15
O=C(Cc1ccccc1)NN1C(=O)CSC1=S | -10
COc1cccc(OCC(=O)NCCc2csc(-c3ccc(Cl)cc3)n2)c1 | 54
O=C1OC(c2ccc(O)cc2)(c2ccc(O)cc2)c2ccccc21 | 0&-5&20
OC(CNCCNc1nccc(C(F)(F)F)n1)c1ccccc1 (stereo unspecified) | 17
CC(C)Cc1noc(C2CCCN(C(=O)c3c(O)cccc3O)C2)n1 (stereo unspecified) | 7
O=C(O)C1c2ccccc2C(=O)N(Cc2ccc3c(c2)OCO3)C1c1cccnc1 (stereo unspecified) | 184
Cc1c(C(=O)N2CCCC(O)(CN(C)C)C2)n(C)c2c(C)cccc12 (stereo unspecified) | 0
CN1CCN(NC(=O)Nc2cccc(F)c2)CC1 | -9
CN1C(COCC2CC2)CCC12CCN(C(=O)CS(C)(=O)=O)CC2 (stereo unspecified) | 5
COc1cc(Cl)cc(CN2CCC(N)(C(=O)O)C2)c1OC (stereo unspecified) | 9
Cc1noc(C)c1NC(=O)Nc1ccc2c(c1)C(=O)N([C@H](C)CO)C[C@@H](C)[C@@H](CN(C)Cc1ccc3c(c1)OCO3)OCCCC[C@H](C)O2 | -10
COc1ccc(-c2noc(-c3c(O)c4ccccc4n(C)c3=O)n2)cc1OC | 82

# Additional compounds
structure | Tgondii IFNg
CNC[C@H]1OCCCC[C@H](C)Oc2ccc(NS(=O)(=O)c3ccc(F)cc3)cc2C(=O)N([C@@H](C)CO)C[C@@H]1C | 25
Brc1ccc(Sc2nc3ccccc3[nH]2)cc1 | -2
CCOC(=O)c1cccc(P(C)(C)=O)c1 | 14
Cc1nc(CN(C)Cc2csc(-c3ccccc3)n2)co1 | 137
CO[C@H]1CC[C@@H]2CCOc3c(C#N)cccc3C(=O)N(C)C[C@H](OC)[C@@H](C)C(=O)N(C)C[C@H]1O2 | -19
COCCC1COC2(CCN(C(=O)c3nn(C)c4ccccc34)C2)C1 (stereo unspecified) | 0
COc1cccc(NC(=O)CN2CCC3(CC2)N=C(c2ccc(Cl)cc2)C(=O)N3)c1 | 24
CCO[C@H]1CC2CC1CN2c1ncccn1 (stereo partly specified) | 6
CC(C)c1noc(-c2cc(=O)n(CC(=O)Nc3ccccc3Cl)c3ccccc23)n1 | -63
O=C(Nc1cccc(Cl)c1)N[C@H]1CC[C@H](CCn2cc(Cc3ccccc3)nn2)O[C@@H]1CO | -63
COc1ccc(C(=O)N2CCN(S(=O)(=O)c3cc4c5c(c3)CCC(=O)N5CCC4)CC2)cc1OC | 16
C[C@H]1CC=CC[C@@H](c2ccc(F)cc2)NC(=O)[C@H](Cc2ccccc2)N(C)C(=O)c2ccccc2O1 (mixture of isomers) | -54
COC[C@H]1CCCN1C(=O)COc1c(C)ccc(C)c1C | -1
c1ccc(OCC2CNCc3cncn3C2)nc1 (stereo unspecified) | 72
COc1ccc(-c2sncc2-c2ccccc2)cc1 | -109*
CCc1nc(-c2cc(C(=O)N(C)CC)c3ccccn23)cs1 | 23
O=C(CC(F)(F)F)N1C[C@@H]2[C@H](c3ccccc31)[C@H](CO)N2C(=O)c1ccncc1 | 5
CC(=O)Nc1ccc(Cl)c(C(=O)NC(CCn2ccnc2)c2ccccc2)c1 (stereo unspecified) | 8
CC(=O)c1c(N)nc2n(c1=O)CCCCC2 | -1
Cc1nc(CN(C)C(=O)c2ccc(C)c(NC(=O)C3CCCC3)c2)no1 | -1

# (more compounds)
structure | Tgondii IFNg
CCc1cnc(N2CC[C@@H]3[C@H]2CCN3S(C)(=O)=O)nc1 | i
COc1ccc(SCCc2ccncc2)cc1 | -60
Cc1cccc(CNC(=O)Cn2c(=O)ccc3cc(S(=O)(=O)N4CCC(C)CC4)ccc32)c1 | -14
COc1cccc(Cl)c1-c1cc(CO)ccn1 | -3
Cc1nn(-c2ccccc2)cc1CN1CCN(Cc2cccc(F)c2)CC1 | 2
O=C(NC1CCCC1)N[C@H]1C=C[C@H](CC(=O)N2CCOCC2)O[C@@H]1CO | 16
CC(C)(CNC(=O)c1ccnc(N2CCCC2)c1)N1CCCCC1 | -5
CN(C)CCN(C)Cc1c(C2CCNCC2)[nH]c2ncccc12 | 97
Cc1cccc(N(CC(=O)N(C)Cc2csc(C(C)C)n2)S(C)(=O)=O)c1 | 10
COCCn1nnnc1C(c1ccc(F)cc1)N1CCCC1 (stereo unspecified) | -6
O=C(NCc1cnn2ccccc12)C1CCCN(c2ccccn2)C1 (stereo unspecified) | 8
Cc1ccc(-c2coc(-c3ccc(NS(=O)(=O)c4ccc(Br)cc4C)cc3)n2)c(C)c1 | -5
Cc1cccc(S(=O)(=O)N2[C@@H]3CNC[C@H]2C3c2ccc(-c3cncnc3)cc2)c1 (stereo partly specified) | 12
CC1=C(C(=O)N2CCN(c3ccc([N+](=O)[O-])cc3)CC2)C2(CCN(Cc3ccccc3)CC2)OC1=O | 131
COc1cc(OC)cc(C(=O)N2CCC3(CC2)NC(=O)c2ccc(F)cc2N3C)c1 | -18
CCN1CC2(CC1=O)CN(C(=O)NCc1ccc(OC)cc1)CCN(C(=O)C(C)C)C2 (stereo unspecified) | 36
C=CCOC[C@H]1CN(C)C(=O)[C@H]2CCN(C(=O)N3CCCC3)CC[C@H]12 | 5
COc1ccccc1C#Cc1ccc2c(c1)[C@@H]1[C@@H](CCN1C(=O)c1ccncc1)[C@H](CO)N2 | 4
O=C1CCc2cc(NC(=O)c3ccc4nc[nH]c4c3)ccc2N1 | 74
Cc1cccc(-c2nc(Cn3nnc(C(=O)NCc4cccc(Cl)c4)c3C)c(C)o2)c1 | -97*

# Compounds from the list above containing bromine:
structure | Tgondii IFNg
Brc1ccc(Sc2nc3ccccc3[nH]2)cc1 | -2
Cc1ccc(-c2coc(-c3ccc(NS(=O)(=O)c4ccc(Br)cc4C)cc3)n2)c(C)c1 | -5

# In a second layout: entries from further up.
CCc1cnc(N2CC[C@@H]3[C@H]2CCN3S(C)(=O)=O)nc1
- Tgondii IFNg: i

COc1ccc(SCCc2ccncc2)cc1
- Tgondii IFNg: -60

Cc1cccc(CNC(=O)Cn2c(=O)ccc3cc(S(=O)(=O)N4CCC(C)CC4)ccc32)c1
- Tgondii IFNg: -14

# A few values from the results shown:
# Tgondii IFNg, COc1cccc(Cl)c1-c1cc(CO)ccn1 → -3
# Tgondii IFNg, COc1cccc(-c2cccc(C3CCCN(C(=O)c4scnc4C)C3)n2)c1 (stereo unspecified) → -57

# The listing continues.
structure | Tgondii IFNg
Cc1nnsc1-c1c(C(=O)O)c(C)nn1-c1ccccc1 | 47
COc1ccc2[nH]c(CN3CCCC(OCc4ccccn4)C3)c(C)c2c1 (stereo unspecified) | 12
Cn1cc(C(=O)NCc2cn3c(n2)CNCC3)cn1 | 87
Cc1oc(-c2ccc(Cl)cc2)nc1CN(CC1CC1)CC1CCCO1 (stereo unspecified) | 10
CN(CCCc1cnn(C)c1)Cc1cnc2c(-c3ccccc3)cnn2c1 | 9
COc1nc(C)c(CC(=O)NCc2cc(C)cc3c(C)c(C)[nH]c23)c(OC)n1 | 48
O=C(CSc1ncccn1)NCc1ccc2c(c1)OCO2 | 22
C(=C\c1ccc(C2[C@H]3CNC[C@@H]2N3CC2CCOCC2)cc1)/c1ccccc1 (stereo partly specified) | -36
CCOC(=O)Cn1nnc(-c2cccs2)n1 | 89
Cc1ccsc1CNC(=O)c1ccc(C#CC(C)(C)O)o1 | 4
O=C(C[C@@H]1CC[C@H]2[C@@H](COC[C@@H](O)CN2C(=O)c2cnccn2)O1)NCc1ccc(Cl)cc1 | 11
O=C1CCCN1CCC1CCCCN1C(=O)Nc1cc(F)ccc1F (stereo unspecified) | -7
COCCNC(=O)C[C@H]1CC[C@@H]2[C@@H](COc3ccc(NS(=O)(=O)c4ccc(Cl)cc4)cc3C(=O)N2C)O1 | 4
COCC(=O)N1[C@H](C#N)[C@@H](c2ccc(C#CCC3CCCC3)cc2)[C@H]1CO | -21
c1ccc(CN2CCC(Nc3ccnn3C3CCNCC3)CC2)cc1 | 50
CC(C)Cc1nc(-c2nc3c([nH]2)CC(C)(C)CNC3=O)no1 | 5
CC(=O)N1CCC(c2c(C(=O)N3CCC(Cc4ccccc4)CC3)sc3ccccc23)C1 (stereo unspecified) | -28
O=C(Cc1ccncc1)N1CC[C@@H]2[C@H](CO)Nc3ccc(Br)cc3[C@@H]21 | 19
COc1ccc([C@H]2CN(Cc3ccccc3)[C@@H]3CCCN(C(C)=O)[C@H]23)cc1 | -3
Cc1ccc2[nH]cc(CCN3CC(C(=O)N4CCCCCC4)CC3=O)c2c1 (stereo unspecified) | 144

# Following part.
structure | Tgondii IFNg
CNC(=O)c1ccc(-c2nc(CN3CCN(S(=O)(=O)c4ccc(F)cc4)CC3)c(C)o2)cc1 | 73
CS(=O)(=O)N1CCN2CC(C(=O)O)CN(Cc3ccoc3)CC2C1 (stereo unspecified) | 151
COc1cccc(CNC2=NCCOc3ccccc32)c1 | 18
Cc1ccc(Nc2nc(-c3nnc(-c4ccc(F)cc4)o3)nc3ccccc23)cc1 | 3
Cc1cccc(CN2CC3(CCN(Cc4cn(C)nc4C)CC3)CC2=O)n1 | -6
Cc1cc(C)cc(S(=O)(=O)Nc2ccc3c(c2)CCC(=O)N3CC(C)C)c1 | -40
CO[C@H]1CC[C@H]2CCN(C)C(=O)CC3(CCCCC3)CN(C)C(=O)c3cc(C#N)ccc3OC[C@H]1O2 | -5
COCCNC(=O)C1(Cc2cccc(-c3ccccc3OC)c2)CCCO1 (stereo unspecified) | -37
CC(=O)Nc1ccc(C2N=C(c3ccc(C(F)(F)F)cn3)NN2)cc1 (stereo unspecified) | 65
Cc1nn(C)cc1C(=O)N1CCCC(c2ccc(Cc3c(F)cccc3F)cn2)C1 (stereo unspecified) | -1
CC(=O)c1ccc(N2CCOCC2)c(-c2ccc(S(C)(=O)=O)cc2)c1 | 44
O=C(NCCc1csc(C2CCCN(C(=O)/C=C/c3ccccc3Cl)C2)n1)C1CC1 (stereo unspecified) | -36
CS(=O)(=O)c1cnc(N2CCOCC2)nc1C1CCN(C(=O)C2CC=CCC2)CC1 (stereo unspecified) | -1
Cc1nc(N2CCC(NC(=O)CCCC(=O)N3CCc4ccccc43)CC2)[nH]c(=O)c1C | 89
C/C=C/c1ccccc1[C@@H]1[C@@H](C#N)N(C(C)=O)[C@H]1CO | 25
CC(C)Cc1cc(CNC(=O)c2ccccc2C2CCNC2)no1 (stereo unspecified) | 8
Clc1ccc2c(c1)[C@H]1OCC[C@H]1[C@@H](c1ccco1)N2 | 149

# In another format: results already given.
Cc1cccc(CN2CC3(CCN(Cc4cn(C)nc4C)CC3)CC2=O)n1
  Tgondii IFNg: -6

COCCNC(=O)C1(Cc2cccc(-c3ccccc3OC)c2)CCCO1 (stereo unspecified)
  Tgondii IFNg: -37

Cc1nc(N2CCC(NC(=O)CCCC(=O)N3CCc4ccccc43)CC2)[nH]c(=O)c1C
  Tgondii IFNg: 89

O=C(NCCc1csc(C2CCCN(C(=O)/C=C/c3ccccc3Cl)C2)n1)C1CC1 (stereo unspecified)
  Tgondii IFNg: -36
